Menin-MLL FL inh = displaces fluorescein MLL peptide from human menin; Fluorescence polarization, fluorescein-MLL peptide displacement from menin; FP activity change, % at 61.4 µM; 290,000 tested, under 10 active; AID 1766; inconclusive = falling polarisation curve, or a change in total fluorescence; inactive = total fluorescence flat and polarisation flat or rising; no compound was filed as active; the % refers to the polarisation; negative = inhibition;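 further: % of control where 0% means no effect; inhibitors lower the polarisation; unlabelled MLL peptide was the positive control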
gsp agonist = agonists of gsp mutant (McCune-Albright syndrome). 0.13% of 340,000 active. gsp mutant cells, cAMP HTRF, 30 min; control for the full effect not named in the record. Potency, µM (highest dose often 76.9 µM), without a hit: top-dose activation (cAMP increase), hits mostly activators; active = well fitted activation curve with a large enough effect; inconclusive = small, poorly fitted or top-dose-only effect, or another doubt; inactive = no such curve, though single readings can be large or run the other way; cell line not stated here;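 further: phosphodiesterase inhibitor Ro 20-1724 added with compounds to block cAMP breakdown; potency means the concentration at half of the fitted maximal effect; nearly all actives have a fitted effect of over 60% in size; about a fifth of the inactives were tested at one dose only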
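Cells stably selected in G418 were plated at 2000/well, grown 16-24 hr, then given compounds in DMSO with the PDE inhibitor […] (300 uM solution added) for 30 min at 37C; cAMP was read by HTRF.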
D2 potentiator = positive allosteric modulators of human D2 dopamine receptor; potentiation, % (no concentration beside the values); DiscoveRx D2 beta-arrestin cells, luminescence, 90 min; 100% = 57 uM dopamine signal; 0.23% of 360,000 active; active = potentiation of 50% or more; inconclusive = 30% to 50%; inactive = 30% or less;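 further: compound concentration not given in the record; tested on top of an EC20 dose of dopamine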
Target sequence (P14416 whole entry, looked up): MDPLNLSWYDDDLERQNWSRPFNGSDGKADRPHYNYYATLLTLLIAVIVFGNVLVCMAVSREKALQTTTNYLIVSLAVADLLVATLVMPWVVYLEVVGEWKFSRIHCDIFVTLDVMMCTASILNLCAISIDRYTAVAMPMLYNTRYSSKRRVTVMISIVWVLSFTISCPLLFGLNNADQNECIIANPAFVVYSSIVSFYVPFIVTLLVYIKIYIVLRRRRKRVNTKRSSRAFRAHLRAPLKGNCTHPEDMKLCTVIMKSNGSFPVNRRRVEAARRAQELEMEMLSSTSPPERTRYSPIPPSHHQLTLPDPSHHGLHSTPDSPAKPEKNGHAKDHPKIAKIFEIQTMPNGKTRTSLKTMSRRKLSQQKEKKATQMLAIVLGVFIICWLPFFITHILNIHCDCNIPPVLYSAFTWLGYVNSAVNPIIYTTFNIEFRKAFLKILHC
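D2 cells co-treated with compound plus 50 nM dopamine (EC20) for 90 min at 37 deg C to detect potentiation. Beta-arrestin recruitment was read as enzyme-fragment luminescence after 1 h at ambient temperature. Full response was set by 57 uM dopamine.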
Sfp PPTase inh = blocks B. subtilis Sfp PPTase activity; Potency, µM, without a hit: max response, negative = inhibition, usual class: inhibitors; Biochemical Sfp PPTase activity, qHTS; 3.5% of 310,000 active; Q9F4F7; active means well fitted inhibition curve with a large enough effect; inconclusive means small, poorly fitted or top-dose-only effect, or another doubt; inactive means no such curve, though single readings can be large or run the other way;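 further: the enzyme is Sfp with the accession as filed and its product quenches rhodamine fluorescence; potency means the concentration at half of the fitted maximal effect; 0% = enzyme reaction without inhibitor and -100% = no enzyme wells; top concentration of the series not given in the record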
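Step 1, compound plus 15 nM Sfp-PPTase, 15 min, room temperature. Step 2, add rhodamine-CoA (5 uM) and BHQ-2-YbbR (12.5 uM). Step 3, read 525/598 nm fluorescence at 0 and 30 min.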
gsp antagonist = gsp mutant antagonism | gsp-mutant cells, cAMP HTRF, 30 min; control for the full effect not named in the record | Potency, µM (top dose mostly 76.9 µM), without a hit: at the top dose activity change, negative = inhibition, most hits filed as inhibitors | AID 624288 | 0.4% of 340,000 active; active = falling curve of any shape with a large fitted effect; inconclusive = falling curve, mostly with a smaller effect; inactive = flat or rising curve; cell line not stated here;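 further: intracellular cAMP measured with PDE inhibitor Ro 20-1724 present during compound exposure; potency means the concentration at half of the fitted maximal effect; on the % scale 0 is the no-effect control and ±100 the full control effect; nearly all actives have a fitted effect of over 65% in size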
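G418-selected cells were plated in DMEM/10% FBS for 16-24 h at 37C, then treated with compounds plus the PDE inhibitor […] (300 uM solution added) for 30 min at 37C. Intracellular cAMP was measured by HTRF after 30 min lysis at room temperature.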
ClpP mod = qHTS Assay for Activators of ClpP; purified B. subtilis ClpP, FRET peptide cleavage, 20 min; Potency, µM (titrated, usually from 57.5 µM), for the others: at the top dose activity change, negative = active; ATP-dependent Clp protease proteolytic subunit (Bacillus subtilis (strain 168)), P80244; 1.9% of 340,000 active; AID 651965, 2013; active = well fitted falling curve with a large enough effect; inconclusive = small, poorly fitted or top-dose-only effect; inactive = no such curve, though single readings can be large or run the other way; further: potency means the concentration at half of the fitted maximal effect; the source files actives as falling curves though it sought activators and does not explain the sign; nearly all actives have a fitted effect of over 65% in size; many hits overshoot -100%
Target sequence (P80244 whole entry, looked up): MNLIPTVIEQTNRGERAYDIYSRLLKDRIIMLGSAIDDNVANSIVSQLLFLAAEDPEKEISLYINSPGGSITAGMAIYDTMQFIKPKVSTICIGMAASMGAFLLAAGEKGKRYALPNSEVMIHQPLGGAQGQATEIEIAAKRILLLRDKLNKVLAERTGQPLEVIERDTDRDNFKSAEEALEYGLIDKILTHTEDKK
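Purified B. subtilis ClpP, 10 microg/mL final in Tris/HCl pH8 with KCl, BSA, glycerol and Tween-20, cleaved an Abz/nitrotyrosine-quenched decapeptide. Fluorescence (ex 320, em 430) was read at 0 and 20 min at room temperature. Delta was normalized to 5.8 microM ADEP and DMSO/no-enzyme controls.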
TRPV1 PAM = human TRPV1 potentiation; Q8NER1; TRPV1-expressing cells, Fluo-8 calcium influx, capsaicin EC20 potentiation; host cell line not named in the record; control for the full effect not named in the record; potentiation, % at 8.33 µM; 0.02% of 320,000 active; AID 540277; active means potentiation above 80%; inconclusive means 30% to 80%; inactive means below 30%; further: 0% is about no effect
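TRPV1-expressing cells were cultured overnight at 35.5C and loaded with Fluo-8 calcium dye for 40 to 90 min at room temperature. After a 10 s baseline, compound was added and calcium influx was read kinetically for 3 min (ex 480/em 520 nm).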
Starred values were filed as active, the others as inactive; ? = inconclusive; / = no result given; & = joins results of further samples; [ ] = another dose, or the depositor's remark.

1: COc1ccc(-c2nc3cc(NC(=O)c4ccc5c(c4)OCO5)ccc3o2)cc1
2: O=C(Nc1nccs1)c1ccc(Cl)c(S(=O)(=O)N2CCCCC2)c1
3: Cc1ccccc1C(=O)Nc1ccc2nc3n(c(=O)c2c1)CCC3
4: O=C(NC1CCCCC1)C(c1ccccc1)N1CCC2(CC1)OCCO2 (stereo not given)
5: O=C(Nc1ccccc1N1CCCCC1)c1cccc(OC(F)F)c1
6: O=S(=O)(NCc1nnc2ccccn12)c1ccc(Cl)cc1
7: COc1cccc2cc(C(=O)NCc3ccc(Cl)cc3)c(=N)oc12
8: CCc1cc(C(=O)OC)c(NC(=O)CC2SC(=NC)N(C)C2=O)s1 (stereo not given)
9: Cc1ccsc1/C=N/NC(=O)c1nnn(-c2nonc2N)c1C
10: COc1ccc(CN2[C@@H](CC(=O)O)c3ccccc3S2(=O)=O)cc1

entry no.	1	2	3	4	5	6	7	8	9	10
Menin-MLL FL inh	2.3	0.2	4.7	3.8	/	/	4.1	3.1	-5.4	/
gsp agonist	?	15%	-1%	18%	1%[15.4 µM]	-4%	31%	-3%	-20%[15.4 µM]	/
D2 potentiator	-7	7	-6	-1	-3	-32	-2	4	-5	-6
Sfp PPTase inh	-1%	15%	4%	1%	-8%	/	-8%	0%	23%	/
gsp antagonist	12%	-4%	9%	2%	-3%	12%	4%	-1%	2%	-1%
ClpP mod	-17%	-2.2%	-3.3%	-1.5%	-3.7%	1.6%	-0.6%	/	/	1.0%&0.4%
TRPV1 PAM	22	-5	-1	22	-10	6	2	11	-13	/

11: O=C(NCCO)C(=O)NCC(c1ccc2c(c1)OCO2)N1CCN(c2ccc(F)cc2)CC1 (stereo not given)
12: CCN(CC)c1ccc(S(=O)(=O)N2CCOCC2)cc1NC(=O)CN1C(=O)NC2(CCCC2)C1=O
13: CCOC(=O)C1=C(C)NC2=C(C(=O)OC2)C1c1ccccc1 (stereo not given)
14: Cc1ccc(S(=O)(=O)N(CC(=O)Nc2ccccc2C(=O)O)c2ccccc2)cc1
15: CC(NC(=O)C1CCCN(C(=O)c2ccc(Cl)cc2)C1)c1cccc(C(F)(F)F)c1 (stereo not given)
16: CCCn1c2ccccc2c2cnn(CC(=O)NC3CCCC(C)C3C)c(=O)c21 (stereo not given)
17: CSCC[C@H](NC(=O)NCCC1=CCCCC1)C(=O)O
18: COc1ccc(CCNC(=O)c2cc3c(=O)n4cccc(C)c4nc3n(CC3CCCO3)c2=N)cc1 (stereo not given)
19: CCOC(=O)c1nc(-c2ccccc2)sc1C(C)=O
20: COc1ccc(OCC(=O)NNC(=S)NC(=O)c2ccc([N+](=O)[O-])cc2)cc1

entry no.	11	12	13	14	15	16	17	18	19	20
Menin-MLL FL inh	1.8	-2.4	0.2	0.1	/	/	-1.0	-1.2	0.7	-0.7
gsp agonist	-26%	-1%	-9%	-19%	-43%[inhibitor]	11%	0%	?	0%[15.4 µM]	-7%
D2 potentiator	-7	4	-3	-4	0	4	-13	-3	4	-3
Sfp PPTase inh	15%	8%	12%	14%	/	10%	-11%	1%	17%	32µM*
gsp antagonist	8%	1%	5%	?	-9%	5%	5%	5%	-3%	-7%
ClpP mod	-0.5%	-1.4%	/	/	-2.3%	1.7%	-4.6%	?	-1.6%	/
TRPV1 PAM	2	-1	-3	6	-25	?	6	-9	0	3

21: CCCCNC(=O)c1cc(-c2ccc(OC)c(OC)c2)on1
22: CCOC(=O)[C@@H]1[C@H]2COc3ccccc3[C@H]2N2C(=O)N(c3ccc(Cl)cc3)C(=O)[C@@]12C
23: CCOC(=O)c1ccc(S(=O)(=O)NC2CCC(C)CC2)cc1 (stereo not given)
24: CCOC(=O)C1=C(COC(=O)/C=C/c2ccccc2F)NC(=O)NC1C (stereo not given)
25: Cc1ccc(N2CC(C(=O)NC3=NCCS3)CC2=O)cc1 (stereo not given)
26: COc1ccc(-c2ccc3c(c2)[C@@H]2C[C@H]4[C@@H](C(=O)N2CC3)[C@H](C)ON4C)cc1
27: COCCn1c(SCC(=O)N2CCC(C)CC2)nc2c(c1=O)SCC2
28: Cc1cccc([N+](=O)[O-])c1NC(=O)COC(=O)c1nc2nccc(C)n2n1
29: CC(C)(C)c1ccc(/C=C/C(=O)N2CCCCC2)cc1
30: CCOC(=O)c1ccc(CNC(=O)CSc2nc(NC(=O)c3ccccc3)c3c(C)c(C)oc3n2)cc1
31: CCc1nnc(NC(=O)CN2CCC(O)(c3ccccc3OC)CC2)s1
32: COc1ccc(-n2c(Cc3cccs3)nnc2SCC(=O)Nc2ccc3c(c2)OCCO3)cc1

entry no.	21	22	23	24	25	26	27	28	29	30	31	32
Menin-MLL FL inh	-0.3	3.0	/	/	0.1	/	/	/	-1.1	2.1	-0.3	3.9
gsp agonist	-22%	/	-8%	-56%[inhibitor]	-37%[inhibitor]	/	-31%[inhibitor]	6%	13%	?	-61%[inhibitor]	-28%
D2 potentiator	-5	-3	-15	6	14	1	-7	0	-13	-7	1	24
Sfp PPTase inh	3%	12%	/	/	8%	/	4%	/	-9%	11%	-13%	1%
gsp antagonist	3%	-1%	1%	-6%	8%	-18%	-3%	6%	?	9%	-1%	32µM*
ClpP mod	-2.9%	0.1%	1.4%	-1.3%	-1.9%	-0.1%	-1.4%	-0.2%	-3.3%	-8.6%	-0.3%	0.7%
TRPV1 PAM	/	-7	-4	10	-1	/	-5	19	-20	-2	0	-1

Rewritten with two lines to a compound: entries from further up
Every second line gives: Menin-MLL FL inh | gsp agonist | D2 potentiator | Sfp PPTase inh | gsp antagonist | ClpP mod | TRPV1 PAM
(1) COc1ccc(-c2nc3cc(NC(=O)c4ccc5c(c4)OCO5)ccc3o2)cc1
    2.3 | ? | -7 | -1% | 12% | -17% | 22
(2) O=C(Nc1nccs1)c1ccc(Cl)c(S(=O)(=O)N2CCCCC2)c1
    0.2 | 15% | 7 | 15% | -4% | -2.2% | -5
(3) Cc1ccccc1C(=O)Nc1ccc2nc3n(c(=O)c2c1)CCC3
    4.7 | -1% | -6 | 4% | 9% | -3.3% | -1
(4) O=C(NC1CCCCC1)C(c1ccccc1)N1CCC2(CC1)OCCO2 (stereo not given)
    3.8 | 18% | -1 | 1% | 2% | -1.5% | 22
(5) O=C(Nc1ccccc1N1CCCCC1)c1cccc(OC(F)F)c1
    / | 1%[15.4 µM] | -3 | -8% | -3% | -3.7% | -10
(6) O=S(=O)(NCc1nnc2ccccn12)c1ccc(Cl)cc1
    / | -4% | -32 | / | 12% | 1.6% | 6
(7) COc1cccc2cc(C(=O)NCc3ccc(Cl)cc3)c(=N)oc12
    4.1 | 31% | -2 | -8% | 4% | -0.6% | 2
(8) CCc1cc(C(=O)OC)c(NC(=O)CC2SC(=NC)N(C)C2=O)s1 (stereo not given)
    3.1 | -3% | 4 | 0% | -1% | / | 11
(9) Cc1ccsc1/C=N/NC(=O)c1nnn(-c2nonc2N)c1C
    -5.4 | -20%[15.4 µM] | -5 | 23% | 2% | / | -13
(10) COc1ccc(CN2[C@@H](CC(=O)O)c3ccccc3S2(=O)=O)cc1
    / | / | -6 | / | -1% | 1.0%&0.4% | /

Screening results: PubChem BioAssay, National Center for Advancing Translational Sciences (NCATS)
